Screens: PubChem BioAssay, several laboratories
Rce1 inhib – inhibitors of yeast Ras-converting enzyme | Q03530 | calls only | yeast membranes, quenched prenylated peptide cleavage fluorescence | AID 2563 | 290,000 tested, 0.27% active;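 active means fall in fluorescence gain of 50% or more versus controls, with final raw signal at or below 3038400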;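 further: plate controls were neutral control wells for no effect and wells lacking membranes for full effect; tested at 10 µM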
CSC inhib – cancer stem cell inhibition; cancer stem cell-like cells viability, luminescence; inhibition, % at 7.5 µM; 300,000 tested, 1.1% active;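 active means mean at 75% or more and at least half the replicates too; tested in HMLE shEcad cells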;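 further: 0% = median of negative and 100% = median of positive control wells; the first replicate is given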
UUG fidelity – modulators of start codon recognition fidelity in yeast; S. cerevisiae UUG-firefly luciferase reporter, luminescence/redox ratio; activity score, % at 18.7 µM; 350,000 tested, 0.13% active; AID 602363;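 active means replicate mean at a twofold rise or more, about +100% in these data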;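 further: firefly luciferase made from a UUG start codon reports start codon fidelity; reporter light over untreated wells divided by growth signal over untreated wells; some hits fall short of that in this replicate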
eIF4H FP inh – inhibitors of RNA binding by human eIF4H. Q15056. eIF4H fluorescence polarization binding assay. inhibition, % at 35 µM. 290,000 tested, 0.94% active;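 active means 50% or more with normal probe brightness, or confirmed in later tests; about a fifth of its hits are not listed in these tables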;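 further: calls also rest on retests at 20 µM and on dose response follow-up; 0% = protein and probe with vehicle and 100% = probe without protein; strong numbers were not always called active; many hits fall short of the cut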
MT1-MMP act inh – inhibitors of human MT1-MMP activation. 360,000 tested, 0.061% active. HT1080 RFP-PRO-GFP cells, GFP/RFP ratio fluorescence, overnight; percent of plate control window, DMSO zero. GFP/RFP ratio change, % at 20 µM. P50281;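 active means GFP/RFP ratio change of at least 30% with cell ATP level not reduced by more than half and red fluorescence within 50% of control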; further: strong numbers were not always called active
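Assay system: HT1080 cells carrying an RFP-PRO-GFP reporter | Dosing: Single dose of 20 µM compound, 1% DMSO final | Incubation: Cells overnight before dosing, compound overnight, 37 °C, 5% CO2 | Evaluation: GFP/RFP fluorescence ratio | Control set: DMSO and RFP-L50D-GFP cell wells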
PABP polyA inh – PABP-poly(A) binding inhibition. 290,000 tested, 1% active. inhibition, % at 35 µM. PABP-poly(A) RNA binding, fluorescence polarization. AID 2014;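 active means 50% or more with normal probe brightness, or confirmed in later tests; about a fifth of its hits are not listed in these tables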;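 further: calls also rest on retests at 20 µM and on dose response follow-up; controls were probe without protein and protein plus probe with vehicle; some compounds called inactive have numbers as strong as hits; many hits fall short of the cut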
Target sequence (P11940 whole entry, looked up): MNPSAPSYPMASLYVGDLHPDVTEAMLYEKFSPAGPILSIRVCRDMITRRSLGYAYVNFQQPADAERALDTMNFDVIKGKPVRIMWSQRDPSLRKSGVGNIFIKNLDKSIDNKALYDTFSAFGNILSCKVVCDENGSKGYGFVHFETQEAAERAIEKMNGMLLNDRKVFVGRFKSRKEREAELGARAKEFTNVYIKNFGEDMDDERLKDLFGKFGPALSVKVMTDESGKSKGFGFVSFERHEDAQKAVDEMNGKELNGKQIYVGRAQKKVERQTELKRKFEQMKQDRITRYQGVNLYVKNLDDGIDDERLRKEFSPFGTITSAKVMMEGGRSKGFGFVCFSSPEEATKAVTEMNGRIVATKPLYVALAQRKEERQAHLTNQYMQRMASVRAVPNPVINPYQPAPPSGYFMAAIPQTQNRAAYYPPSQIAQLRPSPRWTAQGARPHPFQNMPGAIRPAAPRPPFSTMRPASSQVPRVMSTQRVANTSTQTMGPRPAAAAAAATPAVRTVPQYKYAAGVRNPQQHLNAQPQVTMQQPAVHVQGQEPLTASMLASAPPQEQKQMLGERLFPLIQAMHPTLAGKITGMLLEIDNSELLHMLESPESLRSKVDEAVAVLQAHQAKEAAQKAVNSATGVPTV
HIV Env fusion – blocks HIV Env-driven cell-cell fusion; HeLa-JRFL Env/CEM21 cell fusion, luciferase; inhibition, % at 12.3 µM; 360,000 tested, 1.1% active;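 active means mean replicate inhibition score of at least 50 and every replicate individually at or above 50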;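 further: 0% = plate neutral controls and 100% = maraviroc near 300 nM; one replicate is shown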
eIF4H FP inh retest – recorded beside eIF4H FP inh, whose call it bears; inhibition, %; compound at 20 µM; confirmation average;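 mean of two retest wells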
PABP polyA inh retest – second read-out of PABP polyA inh, no call of its own (marks repeat the call); inhibition, %; compound at 20 µM; confirmation repeats;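 mean of two retest wells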
MT1-MMP act inh RFP – second read-out of MT1-MMP act inh, no call of its own (marks repeat the call); RFP signal change, %; measured here: RFP expression control read;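 0 = vehicle wells; hits needed this value within 50% of zero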
* marks the source's active call; other numbers are inactive results; i = inactive; x = not tested or not shown; + = active, no number. An excerpt. The share of hits here may be higher or lower than overall.

SMILES	Rce1 inhib	CSC inhib	UUG fidelity	eIF4H FP inh	MT1-MMP act inh	MT1-MMP act inh RFP	PABP polyA inh	HIV Env fusion	others
Nc1cc2c(cc1C(=O)c1ccccc1)OCCO2	i	-15.5	-15.4	-1.4	7.4	2.3	-1.0	-122.3
COc1ccc(-c2cc(C(=O)NCCCN3CCCC3=O)c3ccccc3n2)cc1	+	-14.9	-7.1	x	x	x	x	x
CCC(C(=O)OC(C)C)c1ccc2ccccc2c1 (centres undefined)	x	-21.6	-5.4	x	-4.5	2.8	x	2.5
CCCCC(=O)N(C)c1c(C)nc2ccc(C(=O)N3CCN(S(=O)(=O)CC)CC3)cn12	x	x	-10.2	x	-2.8	2.5	x	-13.7
CCCN(CC(=O)Nc1cc(Cl)ccc1Cl)C(=O)c1ccc2n[nH]nc2c1	x	15.5	-6.4	x	10.4	0.2	x	-10.7
COCCCN(C(=S)Nc1c(C)cc(C)cc1C)C(C)c1ccncc1 (centres undefined)	i	-10.5	x	-4.5	0.7	3.7	-9.1	14.4
Cc1cccc(/C=C/c2nc3ccccc3c(=O)n2Cc2ccccc2)c1	i	20.1	x	76.1*	-9.7	-9.1	19.7*	1.5	eIF4H FP inh retest=90.5*;PABP polyA inh retest=100.2*
Cc1cc(C(=O)NCCN2CCCCC2C)n(-c2ccccc2)n1 (centres undefined)	i	-10.5	-11.5	0.0	-1.1	0.9	-8.0	-5.9
COc1cccc(-c2cc(C(F)(F)F)nc(-n3cccn3)n2)c1	i	-8.5	-13.2	-2.0	-7.5	-14.7	-8.7	-11.1
NC1=C([N+](=O)[O-])C(c2ccc(F)cc2)C2=C(CCCC2=O)O1 (centres undefined)	i	-21.9	x	-4.0	-7.2	0.6	-5.5	-14.2
COc1ccc(-c2cc(C(=O)Nc3cccnc3)no2)cc1OC	i	12.5	-9.5	3.2	2.1	-0.1	12.4	2.5
Clc1ccccc1Cn1nnc2c(N3CCCC3)ncnc21	i	-1.3	-21.3	-11.1	1.5	-0.3	0.8	x
C=CCNC(=S)N1CCN(c2ncc(C(F)(F)F)cc2Cl)CC1	i	40.1	x	-0.3	9.0	-2.7	4.5	0.3
CC(C)(CO)CNC(=O)CCc1nnc(Cc2ccc(-c3ccccc3)cc2)o1	i	0.7	x	-2.2	6.0	4.2	0.8	-2.7
CCOc1ccccc1OCCCC(=O)N1CCN(S(=O)(=O)c2ccc(C)cc2C)CC1	x	10.4	x	x	-5.9	-6.5	x	35.8
Cc1ccc(NC(=O)c2ccc3c(c2)NC(=O)CS3)nc1	i	13.0	-17.5	x	4.1	2.2	x	-411.4
COC(=O)CCc1nc2ccccc2[nH]c1=O	i	2.3	-11.9	-3.5	0.3	2.0	5.9	-57.7
O=C(CSc1nc(O)cc(=O)[nH]1)Nc1ccc2c(c1)CCC2	i	-18.0	-13.6	6.0	1.8	5.7	6.9	-16.1
Cc1ccc(S(=O)(=O)CC(=O)Nc2nccs2)cc1	i	-12.8	x	x	1.3	0.7	x	x
CC#CCN1c2ccccc2[C@]23C[C@@H](C(=O)OC)N(C(=O)c4cc(C)oc4C)C2=NC(C(=O)OC)=C(C(=O)OC)[C@H]13	i	16.2	1.2	91.6	-3.1	-0.4	6.1	-44.8	eIF4H FP inh retest=3.3;PABP polyA inh retest=-3.0
Cc1ccc(-n2c(Cl)c(Cl)[nH]c(=O)c2=O)cc1	i	-2.6	-5.2	12.2	-5.3	-0.4	1.3	-9.7
COc1ccc([N+](=O)[O-])cc1-c1nc2ccccc2nc1-c1ccccc1	i	-5.9	-18.1	-7.4	3.9	0.8	-9.1	17.2
Clc1ccc(-n2nnnc2CN2CCCCC2)cc1Cl	i	x	-15.5	-12.9	-3.0	-8.1	4.0	18.6
COc1ccc(NC(=O)CN2CCCCCC2)cc1OC	x	-9.3	-0.2	-9.1	-0.7	-1.1	4.6	8.2
COc1cccc(CNC(=O)CSC(=S)N2CCCC2)c1	i	3.8	-1.8	x	1.0	5.9	x	6.9
CC(C)Oc1ccc(S(=O)(=O)N2CCOCC2)cc1NC(=O)CN1C(=O)c2ccccc2C1=O	x	x	1.9	x	0.6	-1.8	x	2.0
Cc1sc2ncnc(N/N=C/c3cccc(O)c3)c2c1C	i	-6.2	x	-2.4	-0.4	0.0	3.0	17.5
CCN1C(=O)[C@H]2[C@@H](c3ccc(C)cc3)N3C(=O)N(c4ccc(C)cc4)C(=O)[C@@]3(CC)[C@H]2C1=O	i	-1.0	-15.2	x	-3.5	1.4	x	1.0
C(=N\Nc1nc2ccccc2s1)/c1ccccn1	i	93.9*	x	18.7	x	x	-7.4	-2.1
CCn1cc(Cl)c(C(=O)NNC(=O)CCn2ccc([N+](=O)[O-])n2)n1	i	x	-1.9	2.3	2.7	-0.2	-0.6	-1.3
COc1ccc(S(=O)(=O)N2CCOCC2)cc1NC(=O)Cc1c(F)cccc1Cl	x	x	-8.0	x	-0.5	-0.1	x	10.1
CN1CCN(c2ccc(NC(=O)CSc3ccccc3)cc2F)CC1	i	43.6	-22.7	7.2	2.8	-1.0	-8.7	-109.7
CCc1nn2c(=O)c(S(=O)(=O)Nc3ccc(C(C)C)cc3)c(C)nc2s1	x	18.3	-13.7	-7.4	-4.7	-10.8	13.8	15.0
CC(C)CN(C(=O)COC(=O)COc1ccc2c(c1)CCC2)c1c(N)n(Cc2ccccc2)c(=O)[nH]c1=O	i	-6.6	x	x	-1.2	2.3	x	-3.1
COc1ccc(/C=N/NC(=O)c2nc(-c3ccccc3)n(-c3ccccc3)n2)cc1OC	i	-15.2	-35.0	11.4	-0.2	0.7	12.0	x
CCn1c(SCC(=O)Nc2nonc2C)nnc1-c1ccco1	i	-0.8	-1.7	1.4	-2.7	-1.4	-6.6	-35.2
CCCCNC(=O)CC1C(=O)N(Cc2ccccc2)C(C)c2nc3ccccc3n21 (centres undefined)	i	x	-8.7	1.4	3.0	-1.0	0.9	-68.7
COCCCN1C(=O)C(CC(=O)NC(c2ccccc2)c2ccccc2)CC(C(=O)N(C)C)=C1C (centres undefined)	x	x	-2.1	x	-2.3	3.4	x	-15.2
COc1ccc(CCNC(=O)C(=O)NCC2CCCN2S(=O)(=O)c2cccs2)cc1OC (centres undefined)	i	-5.9	11.4	x	-1.3	-1.4	x	7.9
COc1ccc(NC(=O)Cn2cnc3sc(C)c(S(=O)(=O)N4CCOCC4)c3c2=O)c(OC)c1	i	-5.9	-20.1	-11.6	0.0	0.5	1.9	-2.5
CCOC(=O)CSc1nnc(Cc2ccccc2)n1-c1ccc(C)cc1	i	-5.4	-8.0	10.0	-1.8	2.6	20.2	x
COc1ccccc1P(=O)(c1ccccc1)c1ccc([N+](=O)[O-])cc1 (centres undefined)	i	-10.9	-6.4	-3.6	-0.7	-3.0	15.2	-26.5
Cn1nc(-c2ccc(N3CCCCC3)c(NC(=O)c3ccco3)c2)c2ccccc2c1=O	i	25.3	x	3.6	-10.8	-9.2	-2.0	40.5
CC(=O)N1CCOc2ccc(S(=O)(=O)NCCc3ccc(Cl)cc3)cc21	i	-11.7	-3.4	-10.0	1.6	1.1	16.0	8.9
O=C(C1CCCCN1S(=O)(=O)c1ccccc1[N+](=O)[O-])N1CCCC1 (centres undefined)	i	-2.2	x	2.5	x	x	2.4	-33.3
O=C(COC(=O)c1ccc(N2CCCC2=O)cc1)c1ccc(OC(F)F)cc1	i	-3.6	-18.7	-5.4	1.9	1.5	-4.8	4.3
O=C(O)c1cc(NC(=O)c2ccccc2F)cc(NC(=O)c2ccccc2F)c1	x	-6.4	-1.3	-2.5	-0.3	2.9	-6.4	-10.0
CC(=O)Nc1ccc(NC(=O)C2(C)CC2(Cl)Cl)cc1 (centres undefined)	i	-10.6	-8.8	1.1	-0.1	1.6	-8.1	-15.0
Cc1cccc(NC(=O)CCc2ccc(C)o2)c1	i	1.2	-4.0	-1.9	-3.0	0.1	5.3	x
CCCCc1nc(SCC(=O)Nc2nnc(CCCC)s2)n[nH]1	i	-4.1	x	-1.1	2.4	3.1	-8.4	-6.2
Cc1nn(-c2ccccn2)c2c1C(c1c(F)cccc1Cl)C1=C(N2)c2ccccc2C1=O (centres undefined)	i	1.5	x	-2.0	x	x	4.9	x
Cc1noc(C)c1COc1ccc(C(=O)N2CCN(S(=O)(=O)c3ccc(F)cc3)CC2)cc1	x	x	1.8	x	-4.1	-3.0	x	2.7
O=C(Nc1cccc(F)c1)C1CCN(C(=O)c2ccccc2Cl)CC1	i	2.2	-1.4	-4.4	3.6	2.3	-1.8	x
O=C1C=C(c2ccc(-c3ccccc3)c(F)c2)C[C@@H](c2ccc(Cl)cc2)C1	x	27.9	-6.7	x	4.3	-1.6	x	-1.9
C(=N\Nc1nncn1/N=C/c1ccco1)/c1ccco1	i	4.5	x	4.3	1.7	0.7	7.3	-7.5
CCN1C(=O)C(=O)N(CC(=O)N(C)CC(=O)Nc2ccccc2Cl)C1=O	i	-1.4	x	x	-3.7	-0.5	x	-21.3
CCC(=O)/C=C1/Sc2ccc(OC)cc2N1CCO	i	-6.4	x	-6.4	1.2	2.1	8.1	-30.9
COc1ccc(Cl)cc1Nc1nc(C)nc2c1nnn2Cc1ccccc1	i	4.6	-6.3	-0.4	1.7	-3.4	8.3	21.6
Cc1cc(C(=O)Nc2cccc([N+](=O)[O-])c2C)cs1	i	6.1	0.3	-6.3	-0.4	-1.3	10.7	-13.5
COc1ccc(N=C2SC(CC(=O)Nc3ccc(OC)cc3OC)C(=O)N2C)cc1 (centres undefined)	x	-3.6	8.5	2.4	2.4	2.1	4.5	-24.6
C=C(C)CSc1cc(C)nc2c(-c3ccccc3)c(C)nn12	+	37.6	-21.3	-8.3	7.8	1.4	5.6	61.1*

At a glance, part of the list above:
SMILES	Rce1 inhib	CSC inhib	UUG fidelity	eIF4H FP inh	MT1-MMP act inh	MT1-MMP act inh RFP	PABP polyA inh	HIV Env fusion	others
O=C(C1CCCCN1S(=O)(=O)c1ccccc1[N+](=O)[O-])N1CCCC1 (centres undefined)	i	-2.2	x	2.5	x	x	2.4	-33.3
O=C(COC(=O)c1ccc(N2CCCC2=O)cc1)c1ccc(OC(F)F)cc1	i	-3.6	-18.7	-5.4	1.9	1.5	-4.8	4.3
O=C(O)c1cc(NC(=O)c2ccccc2F)cc(NC(=O)c2ccccc2F)c1	x	-6.4	-1.3	-2.5	-0.3	2.9	-6.4	-10.0
CC(=O)Nc1ccc(NC(=O)C2(C)CC2(Cl)Cl)cc1 (centres undefined)	i	-10.6	-8.8	1.1	-0.1	1.6	-8.1	-15.0
Cc1cccc(NC(=O)CCc2ccc(C)o2)c1	i	1.2	-4.0	-1.9	-3.0	0.1	5.3	x
CCCCc1nc(SCC(=O)Nc2nnc(CCCC)s2)n[nH]1	i	-4.1	x	-1.1	2.4	3.1	-8.4	-6.2
Cc1nn(-c2ccccn2)c2c1C(c1c(F)cccc1Cl)C1=C(N2)c2ccccc2C1=O (centres undefined)	i	1.5	x	-2.0	x	x	4.9	x
Cc1noc(C)c1COc1ccc(C(=O)N2CCN(S(=O)(=O)c3ccc(F)cc3)CC2)cc1	x	x	1.8	x	-4.1	-3.0	x	2.7
O=C(Nc1cccc(F)c1)C1CCN(C(=O)c2ccccc2Cl)CC1	i	2.2	-1.4	-4.4	3.6	2.3	-1.8	x
